# From PubChem
# Vaccinia stage = blocks a specific stage of Vaccinia orthopoxvirus infection; AID 1053133; activity change (mCherry), % (no concentration beside the values); hit rate 0.01% among 89,000; Vaccinia-infected cells, mCherry/Venus stage reporter fluorescence; hits give low values; some inactives read as strong as hits;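 active means mCherry past -33% and 40 or more points under the early reporter, replicates agreeing; inconclusive means past -33% without that gap or agreement; tested in A549 cells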;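 further: scaled between vehicle wells and reference inhibitor wells; 23 nL library stock went into each well; one replicate is shown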
# Vaccinia stage Venus = further read-out of Vaccinia stage, marked with its call; activity change (Venus), %; measured here: Venus reporter, other viral stage;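 negative = less Venus signal; first of two replicates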
# * = called active by the depositor; ? = inconclusive; . = not tested or not shown. An excerpt; count on the stated rates, not on these rows.
SMILES,Vaccinia stage,Vaccinia stage Venus
COc1cccc(C(=O)N2C[C@@H]3[C@H](c4ccccc42)[C@H](CO)N3C(=O)c2ccc(F)cc2)c1,7,4
C[C@@H]1CN([C@H](C)CO)C(=O)c2cccc(NC(=O)c3nc4ccccc4s3)c2O[C@@H]1CN(C)C(=O)NC1CCCCC1,-13,-14
C[C@H](CO)N1C[C@H](C)[C@H](CN(C)C(=O)Nc2ccc(F)cc2)Oc2c(NS(=O)(=O)c3ccc(Cl)cc3)cccc2C1=O,-6,-10
C[C@@H]1CN([C@H](C)CO)C(=O)c2cc(C#C[C@@H](C)O)cnc2O[C@H]1CN(C)CC1CCOCC1,28,6
C[C@@H]1CN([C@@H](C)CO)C(=O)c2cc(NS(=O)(=O)c3cccs3)ccc2O[C@@H](C)CCCCO[C@@H]1CN(C)C(=O)c1ccncc1,9,5
CNC[C@H]1Oc2ccc(NC(=O)CCC(F)(F)F)cc2C(=O)N([C@H](C)CO)C[C@@H]1C,13,5
COc1ccc(-c2ccc([C@H]3[C@@H](CO)N4C(=O)CNC[C@H]34)cc2)cc1,15,15
C[C@@H]1CCCCO[C@H](CN(C)C(=O)C2CCCCC2)[C@@H](C)CN([C@@H](C)CO)C(=O)c2cc(NC(=O)C3CCCCC3)ccc2O1,?,.
CO[C@H](CN(C)S(=O)(=O)c1ccc(C)cc1)[C@H](C)CN(Cc1ccccc1Cl)[C@@H](C)CO,-11,-10
CS(=O)(=O)N1CC2(C1)[C@@H](c1ccccc1)[C@@H](CO)N2CC1CC1,8,6
O=C(c1ccc2c(c1)OCO2)N1C[C@H]2[C@@H](c3ccccc31)[C@H](CO)N2Cc1ccc2c(c1)OCO2,-4,-5
CO[C@@H]1CN(C)C(=O)c2cc(NC(=O)c3cnccn3)ccc2OC[C@@H](C)N(CCc2ccccc2)C[C@H]1C,-18,-13
Cc1noc(C)c1S(=O)(=O)Nc1ccc2c(c1)C(=O)N([C@@H](C)CO)C[C@@H](C)[C@H](CN(C)Cc1ccc(C(F)(F)F)cc1)OCCCC[C@H](C)O2,?,.
COc1ccc(CN(C)C[C@H]2Oc3ccc(NC(=O)Cc4ccccc4)cc3CC(=O)N([C@@H](C)CO)C[C@@H]2C)cc1,1,-2
COc1ccc(NC(=O)Nc2ccc3c(c2)CC(=O)N([C@H](C)CO)C[C@@H](C)[C@H](CN(C)S(=O)(=O)c2ccccc2)O3)cc1,7,9
O=C(C[C@H]1CC[C@H]2[C@@H](COC[C@H](O)CN2C(=O)Nc2ccc(F)cc2)O1)NCCc1ccccc1,-4,6
CN1C(=O)c2cc(NC(=O)c3cccc(F)c3)ccc2OC[C@@H]2O[C@H](CC(=O)NCc3ccccc3Cl)CC[C@H]21,-22,-11
C[C@H]1CN([C@@H](C)CO)C(=O)c2cc(C#CC3CC3)cnc2O[C@H]1CN(C)C(=O)Cc1ccccn1,9,-9
COc1ccc(NC(=O)N(C)C[C@@H]2Oc3ccc(NC(=O)c4ccncc4)cc3CC(=O)N([C@@H](C)CO)C[C@@H]2C)cc1,13,0
O=C1N[C@H](Cc2ccccc2)COCc2cn(nn2)CC[C@H]1Cc1ccccc1,8,6
COCC(=O)Nc1ccc2c(c1)[C@H]1C[C@@H](CC(=O)NCc3cccc(F)c3)O[C@@H](CO)[C@H]1O2,4,-1
C[C@@H]1CN([C@H](C)CO)C(=O)Cc2cc(NC(=O)Cc3cn(C)c4ccccc34)ccc2O[C@@H]1CN(C)S(=O)(=O)c1cccs1,-9,-3
COCC(=O)NC[C@H]1N[C@H](CO)[C@@H]1c1ccc(C#CC2CCCCC2)cc1,0,13
C[C@@H]1CCCCO[C@@H](CN(C)C)[C@H](C)CN([C@@H](C)CO)C(=O)c2cc(NS(=O)(=O)c3ccccc3)ccc2O1,12,12
CCCC(=O)Nc1ccc2c(c1)OC[C@H](C)N(CC1CCOCC1)C[C@@H](C)[C@H](OC)CN(C)C2=O,6,7

# Four entries from above, bar-delimited:
smiles | Vaccinia stage | Vaccinia stage Venus
C[C@H](CO)N1C[C@H](C)[C@H](CN(C)C(=O)Nc2ccc(F)cc2)Oc2c(NS(=O)(=O)c3ccc(Cl)cc3)cccc2C1=O | -6 | -10
C[C@@H]1CN([C@H](C)CO)C(=O)c2cc(C#C[C@@H](C)O)cnc2O[C@H]1CN(C)CC1CCOCC1 | 28 | 6
C[C@@H]1CN([C@@H](C)CO)C(=O)c2cc(NS(=O)(=O)c3cccs3)ccc2O[C@@H](C)CCCCO[C@@H]1CN(C)C(=O)c1ccncc1 | 9 | 5
CNC[C@H]1Oc2ccc(NC(=O)CCC(F)(F)F)cc2C(=O)N([C@H](C)CO)C[C@@H]1C | 13 | 5

# Continuation.
SMILES,Vaccinia stage,Vaccinia stage Venus
CCC(=O)Nc1ccc2c(c1)C(=O)N(C)C[C@H](OC)[C@H](C)CN(C(=O)CC1CC1)[C@H](C)CO2,7,6
O=C(C[C@H]1C=C[C@H](NC(=O)Cc2ccccn2)[C@H](CO)O1)NCCCN1CCOCC1,5,12
O=C(C[C@@H]1CC[C@H](NC(=O)c2ccccc2)[C@@H](CO)O1)NCc1ccncn1,11,8
C[C@@H]1CN([C@@H](C)CO)C(=O)c2cc(NS(C)(=O)=O)ccc2O[C@@H](C)CCCCO[C@@H]1CN(C)Cc1ccncc1,7,7
C[C@@H]1CN([C@H](C)CO)S(=O)(=O)c2ccc(C#CC3CC3)cc2O[C@H]1CN(C)Cc1ccccc1F,-32,-20
CN1[C@@H]2c3ccc(-c4ccccc4)c(=O)n3C[C@H]1[C@H](CO)[C@H]2C(=O)NCCCN1CCOCC1,12,7
C[C@@H]1CN([C@H](C)CO)C(=O)c2cc(Br)cnc2O[C@@H]1CN(C)Cc1ccccc1,-2,-3
C[C@@H]1CN([C@H](C)CO)C(=O)c2cccc(NC(=O)NC3CCCCC3)c2O[C@H]1CN(C)C(=O)NC1CCCCC1,-5,2
COc1ccc(NC(=O)N(C)C[C@@H]2Oc3ccc(NC(=O)Nc4ccc(C(F)(F)F)cc4)cc3CC(=O)N([C@@H](C)CO)C[C@H]2C)cc1,-6,-3
C[C@H]1CN([C@@H](C)CO)C(=O)Cc2cc(NC(=O)c3ccncc3)ccc2O[C@@H]1CN(C)Cc1ccncc1,15,19
C[C@@H]1CN([C@@H](C)CO)C(=O)CCCn2nncc2CO[C@@H]1CN(C)Cc1ccc2c(c1)OCO2,-2,-2
O=C(CC(F)(F)F)N1C[C@@H]2[C@H](c3ccccc31)[C@@H](CO)N2Cc1cccnc1,-18,-14
O=C(c1ccccc1)N1CC2(C1)[C@H](c1ccccc1)[C@@H](CO)N2Cc1ccccn1,7,7
COc1cccc(S(=O)(=O)N2CCCCN3[C@H](CO)[C@H](c4ccc(-c5cccnc5)cc4)[C@@H]3C2)c1,-30,-36
Cc1noc(C)c1NC(=O)Nc1ccc2c(c1)C(=O)N([C@H](C)CO)C[C@@H](C)[C@@H](CN(C)Cc1ccc(C(=O)Nc3ccccc3N)cc1)O2,-1,0
C[C@H](O)C#Cc1ccc2c(c1)O[C@H](CN(C)C(=O)Nc1ccccc1)[C@H](C)CN([C@@H](C)CO)S2(=O)=O,8,12
CS(=O)(=O)N1[C@@H]2CNC[C@H]1C2c1ccc(-c2ccccc2)cc1 (stereo not given in full),-10,-2
CN1c2ccc(-c3cccc(F)c3)cc2[C@H]2[C@H](CCN2C(=O)Cc2cccnc2)[C@@H]1CO,-23,-15
CN1C(=O)c2cc(NC(=O)Cc3cccs3)ccc2OC[C@@H]2O[C@H](CC(=O)NCC3CC3)CC[C@H]21,4,3
CCCNC(=O)Nc1ccc2c(c1)C(=O)N(C)[C@@H]1CC[C@@H](CC(=O)NCC3CCCCC3)O[C@@H]1CO2,-1,1
COc1ccc(S(=O)(=O)N(C)C[C@H]2OCCCC[C@@H](C)Oc3ccc(NS(=O)(=O)c4c(C)noc4C)cc3C(=O)N([C@H](C)CO)C[C@@H]2C)cc1,-1,-1
C/C=C/c1ccc([C@H]2[C@@H](CO)N(C(=O)CC)[C@@H]2CNC(=O)CC)cc1,-2,4
CC(C)NC(=O)N[C@@H]1C=C[C@@H](CC(=O)N2CCCCC2)O[C@H]1CO,14,16
Cc1noc(C)c1S(=O)(=O)Nc1ccc2c(c1)CC(=O)N([C@@H](C)CO)C[C@H](C)[C@@H](CN(C)C(=O)Nc1ccc(F)cc1)O2,20,19
C[C@@H]1CCCCO[C@@H](CN(C)Cc2ccc(C(=O)O)cc2)[C@H](C)CN([C@@H](C)CO)C(=O)c2cc(NS(=O)(=O)c3cccs3)ccc2O1,?,.

# The list goes on; the last four above are carried over.
SMILES,Vaccinia stage,Vaccinia stage Venus
C/C=C/c1ccc([C@H]2[C@@H](CO)N(C(=O)CC)[C@@H]2CNC(=O)CC)cc1,-2,4
CC(C)NC(=O)N[C@@H]1C=C[C@@H](CC(=O)N2CCCCC2)O[C@H]1CO,14,16
Cc1noc(C)c1S(=O)(=O)Nc1ccc2c(c1)CC(=O)N([C@@H](C)CO)C[C@H](C)[C@@H](CN(C)C(=O)Nc1ccc(F)cc1)O2,20,19
C[C@@H]1CCCCO[C@@H](CN(C)Cc2ccc(C(=O)O)cc2)[C@H](C)CN([C@@H](C)CO)C(=O)c2cc(NS(=O)(=O)c3cccs3)ccc2O1,?,.
COCc1cn(CC[C@@H]2CC[C@H](NC(=O)c3ccccc3)[C@H](CO)O2)nn1,23,19
C[C@H](O)C#Cc1ccc2c(c1)O[C@H](CN(C)C(=O)C1CCCCC1)[C@H](C)CN([C@@H](C)CO)S2(=O)=O,-1,8
CO[C@H]1CN(C)C(=O)c2cc(NS(=O)(=O)c3ccccc3Cl)ccc2OC[C@H](C)NC[C@@H]1C,-11,-6
COc1ccc(NC(=O)N(C)C[C@H]2Oc3c(NS(C)(=O)=O)cccc3C(=O)N([C@H](C)CO)C[C@H]2C)cc1,6,5
CO[C@H]1CC[C@@H]2CCN(C)C(=O)[C@H](C)[C@@H](OC)CN(C)C(=O)c3cccc(C#N)c3OC[C@@H]1O2,15,11
O=C(c1cccnc1)N1C[C@H]2[C@@H](c3ccccc31)[C@H](CO)N2C(=O)C1CCOCC1,7,5
CCCNC(=O)C[C@H]1CC[C@H]2[C@@H](COC[C@@H](O)CN2C(=O)Nc2ccc(Cl)c(Cl)c2)O1,?,.
C[C@@H]1CN([C@@H](C)CO)C(=O)c2cc(NC(=O)Nc3ccccc3)ccc2O[C@@H]1CN(C)S(=O)(=O)c1ccc(Cl)cc1,-21,-10
CCCC#Cc1ccc2c(c1)O[C@@H](CN(C)C(=O)Nc1ccccc1F)[C@H](C)CN([C@@H](C)CO)S2(=O)=O,?,.
NCC[C@H]1CC[C@H](NC(=O)C2CC2)[C@@H](CO)O1,-1,-6
CC(C)c1cn(CC[C@@H]2CC[C@H](NC(=O)Nc3cc(Cl)cc(Cl)c3)[C@@H](CO)O2)nn1,-19,-14
C[C@@H]1CN([C@@H](C)CO)C(=O)c2cc(NC(=O)Nc3ccc4c(c3)OCO4)ccc2O[C@H]1CN(C)Cc1ccc2c(c1)OCO2,-10,-1
CO[C@H]1CN(C)C(=O)c2cc(NC(C)=O)ccc2OC[C@H](C)N(C(=O)CN(C)C)C[C@@H]1C,11,5
Cc1noc(C)c1S(=O)(=O)Nc1ccc2c(c1)CC(=O)N([C@@H](C)CO)C[C@@H](C)[C@H](CN(C)S(=O)(=O)c1cn(C)cn1)O2,4,-3
COc1ccc(NC(=O)N(C)C[C@H]2Oc3c(NC(=O)c4cnccn4)cccc3C(=O)N([C@H](C)CO)C[C@@H]2C)cc1,15,6
O=C(Nc1ccc2c(c1)[C@H]1C[C@@H](CC(=O)N3CCc4ccccc4C3)O[C@@H](CO)[C@H]1O2)Nc1ccccc1F,?,.
O=C(Nc1ccc(F)cc1)N[C@@H]1CC[C@H](CCn2cc(C3(O)CCCC3)nn2)O[C@@H]1CO,11,2
C[C@@H]1CN([C@H](C)CO)C(=O)c2cc(NC(=O)Cn3cnnn3)ccc2O[C@@H]1CN(C)C(=O)Nc1ccc(F)cc1,41,10
O=C(C[C@@H]1CC[C@@H](NC(=O)C2CCC2)[C@H](CO)O1)NC1CCCCC1,-6,0
CC=Cc1ccc2n(c1=O)C[C@@H]1[C@@H](CO)[C@H](C(=O)NCC3CC3)N(CC3CCOCC3)[C@H]21 (mixture of isomers),10,15
CCC(=O)Nc1ccc2c(c1)C(=O)N(C)C[C@H](OC)[C@@H](C)CN(C(=O)NC(C)C)[C@H](C)CO2,-3,2
CN1[C@H](C(=O)NCC(F)(F)F)[C@@H](CO)[C@@H]2Cn3c(ccc(-c4ccccc4F)c3=O)[C@@H]21,-7,-4
CO[C@H]1CN(C)C(=O)c2ccc(NC(=O)C3CCOCC3)cc2OC[C@@H](C)N(CC2CC2)C[C@@H]1C,5,4
C[C@@H]1CN([C@H](C)CO)C(=O)c2cc(NS(=O)(=O)c3ccccc3)ccc2O[C@H]1CN(C)Cc1ccc(Oc2ccccc2)cc1,?,.
CCCC(=O)Nc1ccc2c(c1)OC[C@H](C)N(C(=O)c1cccnc1)C[C@@H](C)[C@H](OC)CN(C)C2=O,9,6
C[C@@H]1CN([C@@H](C)CO)C(=O)c2cc(C#CC3CCCC3)cnc2O[C@H]1CN(C)C(=O)C1CCCCC1,?,.
CC(=O)N(C)C[C@H]1Oc2ncc(-c3cccc(F)c3)cc2C(=O)N([C@@H](C)CO)C[C@@H]1C,9,4
C[C@@H]1CCCCO[C@H](CN(C)Cc2ccccc2)[C@H](C)CN([C@H](C)CO)C(=O)c2cc(NC(=O)Nc3ccc(F)cc3)ccc2O1,?,.
COc1ccc(NC(=O)Nc2ccc3c(c2)CC(=O)N([C@H](C)CO)C[C@@H](C)[C@H](CN(C)S(=O)(=O)c2ccc(Cl)cc2)O3)cc1,0,2
O=C(NCCc1ccncc1)[C@H]1[C@H](CO)[C@H]2Cn3c(cccc3=O)[C@@H]1N2Cc1ccccc1F,16,11
